Bioassay records as filed in PubChem BioAssay.
PV pol inh: inhibitors of poliovirus RNA polymerase binding and polymerization; % elongation, % (compound at 16.7 µg/mL); actives 0.66% (n = 150,000); P03300; poliovirus polymerase elongation, fluorescence polarization; active compounds read low; AID 588519; in the data active = % elongation below about 90%; note: some results filed as inactive read as strong as hits
Target sequence (P03300 1749-2209 limits assumed): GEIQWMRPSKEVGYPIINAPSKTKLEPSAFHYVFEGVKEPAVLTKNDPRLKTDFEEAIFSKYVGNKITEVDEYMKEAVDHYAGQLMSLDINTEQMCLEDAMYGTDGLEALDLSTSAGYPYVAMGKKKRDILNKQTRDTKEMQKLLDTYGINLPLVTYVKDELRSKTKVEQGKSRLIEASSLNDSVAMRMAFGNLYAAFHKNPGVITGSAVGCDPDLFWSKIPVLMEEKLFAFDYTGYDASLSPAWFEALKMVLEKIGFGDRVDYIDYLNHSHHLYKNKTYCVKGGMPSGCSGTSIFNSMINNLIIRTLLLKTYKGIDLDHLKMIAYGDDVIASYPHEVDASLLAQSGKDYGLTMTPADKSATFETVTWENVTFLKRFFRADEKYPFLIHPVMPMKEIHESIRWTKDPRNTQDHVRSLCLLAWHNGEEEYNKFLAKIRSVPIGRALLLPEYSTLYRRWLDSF
PV pol inh intensity: second read-out of PV pol inh, no call of its own (marks repeat the call); % elongation; measured here: total intensity read-out; formula for this scale not given here;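 total fluorescence in place of polarization; lower means less elongation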
Starred values were filed as active, the others as inactive. A portion of the library; the hit share may differ from the screen's.

cpd	Structure	PV pol inh	PV pol inh intensity
1	COc1cc(Cl)ccc1OC(=O)c1cn(-c2ccccc2OC)c(=O)c2ccccc12	106	109
2	CC(C)(C)C(=O)NC1(C(F)(F)F)C(=O)Nc2c1c(=O)[nH]c(=O)n2-c1ccccc1 (stereo unspecified)	106	106
3	CC(CNC(=O)Cn1ccc2cc(S(=O)(=O)N3CCCCC3)ccc21)c1ccccc1 (stereo unspecified)	105	109
4	Cc1ccc(NC(=O)CCCc2nnc3n(C)c(=O)c4sccc4n23)cc1C	124	108
5	CCc1ccc(NC(=O)Cn2nc(SC)c(S(=O)(=O)c3ccc(OC)cc3)c2N)cc1	109	96
6	COc1cccc(NC(=O)C2CC(=O)N(c3ccc(Br)cc3)C2)c1 (stereo unspecified)	108	109
7	CCCC(=O)Oc1c(Sc2ccc(Cl)cc2)c(C)nn1-c1ccccc1	105	105
8	CC(C)CNC(=O)C(=O)Nc1c2c(nn1-c1ccc(Cl)cc1)CSC2	104	99
9	Cc1ccc(S(=O)(=O)c2nnn3c2nc(Nc2ccc(C(C)C)cc2)c2sccc23)cc1C	106	101
10	CCOc1ccc(OCC)c(S(=O)(=O)N2CCN(c3cccc(C)c3C)CC2)c1	104	104
11	Cc1ccc(C(=O)Nc2cc(-c3cn4cccnc4n3)ccc2C)cc1C	102	104
12	COc1ccccc1N1CCN(S(=O)(=O)CCNC(=O)c2cc(=O)c3ccccc3o2)CC1	106	102
13	CCc1ccc(NC(=O)c2ccc(NS(=O)(=O)c3c(C)noc3C)cc2)cc1	101	101
14	COc1ccc(NC(=O)c2c(C)oc3ccc(O)c(CN4CCCC(C)C4)c23)cc1Cl (stereo unspecified)	109	107
15	Cc1oc(-c2ccccc2Cl)nc1CS(=O)CC(=O)NCc1ccc(Cl)cc1 (stereo unspecified)	108	113
16	CCCC(=O)n1nc(-c2cccnc2)nc1NCc1ccc(OC)cc1	103	100
17	CC1=C(C(=O)Nc2cccc(F)c2)C2(CCCCCC2)OC1=O	103	107
18	CCOCCCNC(=O)C(NC(=O)C1CCC(C)CC1)C(C)C (stereo unspecified)	108	109
19	O=C(Cn1c(=O)c2cccn2c2ccc(F)cc21)N1CCN(c2ccccc2F)CC1	103	102
20	O=[N+]([O-])c1cc(-c2nc(-c3ccccc3)no2)ccc1N1CCN(c2ccccc2)CC1	109	109
21	COc1ccc(CNC(=O)CCc2cn(Cc3cc(C)ccc3C)c3ccccc23)cc1OC	104	107
22	COc1ccc(C2=Nc3ccccc3N(CC(=O)Nc3cccc(C(C)=O)c3)C(=O)C2)cc1	120	115
23	CCOCCCNC(=O)CCc1nnc2ccc(N3CCN(c4cccc(OC)c4)CC3)nn12	116	122
24	Cc1ccccc1-c1noc(-c2ccccc2OCC(=O)Nc2ccccc2[N+](=O)[O-])n1	112	120
25	CCc1ccc(NC(=O)C2=C(C)C(=O)OC23CCCCC3)cc1	108	110
26	Cc1cc(C)cc(-n2c(SCC(=O)N3CCCC3)nc3c([nH]c4ccccc43)c2=O)c1	111	115
27	O=C(NCCc1cccs1)c1ccc(Cn2c(SCc3cccc(F)c3)nc3cccnc32)cc1	114	114
28	CCc1ccc(NC(=O)N2CCN(c3nnc(C)c4c(C)n(-c5ccc(Cl)cc5)nc34)CC2)cc1	99	95
29	COc1ccc(NC(=O)C(CC(C)C)NS(=O)(=O)c2ccc3c(c2)oc(=O)n3C)cc1Cl (stereo unspecified)	101	103
30	CCc1cccc(C)c1NS(=O)(=O)c1ccc2c(c1)CC(C)N2C(=O)C1CC1 (stereo unspecified)	111	115
31	COc1ccccc1NC(=O)CSc1ccc(-c2sc(C)nc2C)nn1	108	116
32	COc1cccc(NC(=O)CN2C(=O)CC(c3ccco3)Sc3ccccc32)c1 (stereo unspecified)	106	111
33	Fc1ccc(-c2noc3ncnc(Nc4ccc(F)cc4F)c23)cc1	102	95
34	COc1ccc(OC)c(CNC(=O)C2CCCN(c3ncnc4onc(-c5ccc(F)cc5)c34)C2)c1 (stereo unspecified)	113	113
35	CCCCN(C)CCCNC(=O)c1cc(=O)[nH]c2ccc(S(=O)(=O)N3CCCCC3)cc12	108	105
36	Cn1c(=O)c2c(n3ncnc13)NC(=O)CC2c1cccc(F)c1 (stereo unspecified)	106	108
37	NC(=O)c1cc(S(=O)(=O)N2CCN(c3ccc(F)cc3)CC2)cs1	109	106
38	CCCCOc1ccc(C(=O)NCCc2sc(-c3ccc(OC)c(OC)c3)nc2C)cc1	117	111
39	O=C(Nc1ccc(F)cc1)[C@@H](c1ccccc1)N1Cc2ccccc2C1=O	107	107
40	COc1ccc(OC)c(NC(=O)/C=C/c2ccc(C)o2)c1	103	105
41	COc1cccc(CNC(=O)CCNS(=O)(=O)c2ccc3c(c2)CCCC(=O)N3)c1	112	115
42	CCN(C(=O)c1sc2nc3n(c(=O)c2c1C)CCCCC3)c1ccccc1F	109	110
43	Cc1ccc(NC(=O)Cn2cc(S(=O)(=O)c3ccccc3)c(=O)c3cc4c(cc32)OCO4)cc1	109	109
44	CC(C)CC(=O)Nc1c(C(=O)N2CCN(c3ccccc3)CC2)oc2ccccc12	110	113
45	CCOc1ccc(CNC(=O)c2c(C)nn(-c3ccc(F)cc3)c2-n2cccc2)cc1	121	122
46	O=C(COc1ccc(F)cc1)NCC(c1ccc(Cl)cc1)N1CCCCC1 (stereo unspecified)	104	96
47	CC1CCC(N2CC(=O)N(C3CCCCC3)C(c3ccc(Cl)cc3)C2=O)CC1 (stereo unspecified)	115	113
48	O=C(CN1C(=O)COc2ccc(S(=O)(=O)N3CCOCC3)cc21)N1CCN(c2cccc(C(F)(F)F)c2)CC1	106	108
49	COc1ccccc1NC(=O)CCN1CCC(C(N)=O)CC1	101	94
50	O=C(Nc1cccc(Cl)c1Cl)c1cc(S(=O)(=O)N2CCCc3ccccc32)ccc1F	104	109
51	Cc1cccc(CN2C(=O)c3ccccc3S(=O)(=O)c3ccc(C(=O)NCCC4=CCCCC4)cc32)c1	107	108
52	CCc1nn2c(-c3ccco3)ccnc2c1-c1ccccc1	106	114
53	COc1cccc2c1cc1c(=O)n(CC(=O)NCc3ccc(N(C)C)cc3)nc(C)n12	108	107
54	Cc1cccc(-c2nc3ccccc3n2Cc2ccccc2)c1	110	104
55	NC(=O)CSc1oc(-c2cccs2)nc1S(=O)(=O)c1ccc(Br)cc1	109	112
56	Cc1ccn2c(Nc3ccccc3C)c(-c3ccc(N4CCOCC4)cc3)nc2c1	110	104
57	Cc1ccc(CNC(=O)C(C)n2nc(C)c3sc4ccccc4c3c2=O)cc1 (stereo unspecified)	114	106
58	CSc1ncc(C(=O)NCc2ccccc2Cl)c(C(F)(F)F)n1	105	107
59	Cc1ccc2c(CC(=O)NCc3ccccc3)coc2c1C	1.0*	22*
60	CCCCNC(=O)CSc1c2c(nc3ccc(Cl)cc13)CCCC2	104	106

(list continues)
cpd	Structure	PV pol inh	PV pol inh intensity
61	Cc1oc2ccc(O)c(CN3CCN(C)CC3)c2c1C(=O)Nc1cccc(C(F)(F)F)c1	102	103
62	COc1ccc(-c2nc(CSCC(=O)NCCC(C)C)c(C)o2)cc1OC	102	104
63	CCOC(=O)c1c(C)oc2ccc(N(C(=O)c3ccncc3)S(=O)(=O)c3ccc(CC)cc3)cc12	101	105
64	Cc1ccc(NC(=O)Cn2cnc3c(oc4ccccc43)c2=O)cc1Cl	102	106
65	COc1ccc(CCNC(=O)c2ccc(Cn3c(=O)c4ccccc4n(Cc4ccc(C)cc4)c3=O)cc2)cc1OC	107	111
66	O=C(c1ccccc1)n1nc(-c2ccco2)nc1NCc1ccccc1Cl	101	99
67	COc1cccc(C(=O)c2cn(CC(=O)Nc3cccc(Cl)c3C)c3nc(C)ccc3c2=O)c1	108	111
68	COc1cccc2c1Oc1ncccc1N(C(=O)CCC(=O)NCc1ccc(N(C)C)cc1)C2	110	109
69	CCOc1ccc(C(=O)NC2CC(=O)N(c3ccc(C)cc3)C2)cc1OCC (stereo unspecified)	109	108
70	CCOC(=O)c1c(NC(=O)Cc2coc3cc(C)ccc23)sc2c1CCCC2	120	117
71	COC(=O)c1cc(NC(=O)Cn2ncc3c2-c2ccccc2OC3)cc(C(=O)OC)c1	106	112
72	Cc1ccccc1OC(=O)c1snnc1C	101	99
73	CCCNC(=O)CCC(=O)N1Cc2ccccc2Oc2ncccc21	113	104
74	COc1ccc(C(=O)NCCn2cc(SCc3c(F)cccc3Cl)c3ccccc32)cc1	103	108
75	CCCCOc1ccc(C(=O)Nc2cccc(-c3nc4ccccc4o3)c2C)cc1	105	108

Looked up one by one from above (three):
cpd	Structure	PV pol inh	PV pol inh intensity
63	CCOC(=O)c1c(C)oc2ccc(N(C(=O)c3ccncc3)S(=O)(=O)c3ccc(CC)cc3)cc12	101	105
62	COc1ccc(-c2nc(CSCC(=O)NCCC(C)C)c(C)o2)cc1OC	102	104
74	COc1ccc(C(=O)NCCn2cc(SCc3c(F)cccc3Cl)c3ccccc32)cc1	103	108

Going on with the list.
cpd	Structure	PV pol inh	PV pol inh intensity
76	Cc1ccc(NC(=O)CCC(=O)N2CCSc3ccccc32)cc1Cl	107	111
77	COc1ccc(NC(=O)c2cn(-c3ccccc3)nc2-c2ccc(C)cc2)cc1	104	110
78	COc1ccc2c(C)c(CC(=O)NCc3ccc(C)cc3)c(=O)oc2c1OC	109	93
79	COc1ccc(NC(=O)C2CCCN(S(=O)(=O)c3ccc4[nH]c(=O)ccc4c3)C2)cc1OC (stereo unspecified)	118	119
80	CCCNC(=O)C1CCC(Cn2c(=O)c3sccc3n(CC(=O)N3CCC(C)CC3)c2=O)CC1 (stereo unspecified)	100	102
81	Cc1ccc(S(=O)(=O)N(CC(=O)Nc2cccnc2)c2cc(Cl)ccc2C)cc1	94	94
82	Cc1cccc(N2CCN(C(=O)CCCn3ncn4c(cc5occc54)c3=O)CC2)c1C	109	108
83	O=C(NCc1cccs1)C1CCN(C(=O)N2CCOc3ccccc32)CC1	104	101
84	O=C(c1ccc(C(F)(F)F)cc1)N1CCC(c2noc(-c3ccc(S(=O)(=O)N4CCCC4)cc3)n2)CC1	107	113
85	Cc1c(Cl)cccc1NC(=O)Cn1c(=O)n(Cc2ccco2)c(=O)c2oc3ccccc3c21	104	111
86	CC(C)c1ccc(C2CC(=O)N3CN(C4CCCCC4)CSC3=C2C#N)cc1 (stereo unspecified)	81*	82*
87	O=C(COc1ccccc1)NC1CC(=O)N(c2ccc3c(c2)OCCO3)C1 (stereo unspecified)	99	104
88	CCOC(=O)c1c(C)c(-c2ccccc2)n(CC(=O)NCCc2cccc(C)c2)c1C	103	110
89	Cn1c(=O)cc(SCC(=O)N2CCN(c3ccccc3F)CC2)c2ccc(Cl)cc21	105	111
90	Cc1ccc(S(=O)(=O)NCC2CCC(C(=O)N(C)Cc3ccccc3)CC2)cc1 (stereo unspecified)	107	113
91	COc1cc2ccccc2cc1C(=O)Nc1cccc(-c2nc3cc(C)ccc3o2)c1C	104	108
92	CCC(=O)N1CCc2cc(S(=O)(=O)NC(C(=O)NCCc3ccccc3)C(C)C)ccc21 (stereo unspecified)	101	105
93	CCN(C(=O)CSc1nc2ccccc2[nH]1)c1ccccc1	114	112
94	CCOc1cccc(C2Oc3nc(SC)nnc3-c3ccccc3N2C(C)=O)c1OC (stereo unspecified)	111	116
95	COc1cc(OC)c(NC(=O)c2ccc3c(c2)N(Cc2ccc(C)cc2)CCS3)cc1Cl	106	112
96	CN(C(=O)CSc1cn(CC(=O)N2CCCCCC2)c2ccccc12)c1ccccc1	119	121
97	Cc1ccc(-c2nc(S(=O)(=O)c3ccc(C)cc3)c(N3CCCCC3)o2)cc1	105	110
98	CCOc1ccc2nc(N3CCCC(C(=O)NCCc4ccc(Cl)cc4)C3)sc2c1 (stereo unspecified)	105	105
99	COc1cccc(CNC(=O)CSC2=Nc3ccccc3C3=NC(C(C)C)C(=O)N23)c1 (stereo unspecified)	104	112
100	CCCOC(=O)C(C)n1nnc2sc(-c3ccccc3)cc2c1=O (stereo unspecified)	120	119
101	CCOC(=O)c1ccc(NC(=O)CN2C(=O)CC(c3ccc(C)c(C)c3)=Nc3ccccc32)cc1	98	100
102	CCC(Nc1ccc(-c2nc(-c3ccco3)no2)cc1[N+](=O)[O-])c1ccccc1 (stereo unspecified)	104	107
103	COCc1nc2ccccc2n1CCOc1cccc(C)c1	106	112
104	Cc1cccc(OCCOCCn2c(-c3ccc(Cl)cc3)nc3ccccc3c2=O)c1C	108	109
105	COc1ccc(N2CCN(S(=O)(=O)CCNC(=O)Cc3ccc(-c4ccccc4)cc3)CC2)cc1	107	99

Exported field by field: entries from further up
88) CCOC(=O)c1c(C)c(-c2ccccc2)n(CC(=O)NCCc2cccc(C)c2)c1C
  PV pol inh = 103
  PV pol inh intensity = 110

89) Cn1c(=O)cc(SCC(=O)N2CCN(c3ccccc3F)CC2)c2ccc(Cl)cc21
  PV pol inh = 105
  PV pol inh intensity = 111

6 structures from above, sorted by formula weight, high to low.
cpd	Structure	PV pol inh	PV pol inh intensity
101	CCOC(=O)c1ccc(NC(=O)CN2C(=O)CC(c3ccc(C)c(C)c3)=Nc3ccccc32)cc1	98	100
95	COc1cc(OC)c(NC(=O)c2ccc3c(c2)N(Cc2ccc(C)cc2)CCS3)cc1Cl	106	112
98	CCOc1ccc2nc(N3CCCC(C(=O)NCCc4ccc(Cl)cc4)C3)sc2c1 (stereo unspecified)	105	105
94	CCOc1cccc(C2Oc3nc(SC)nnc3-c3ccccc3N2C(C)=O)c1OC (stereo unspecified)	111	116
91	COc1cc2ccccc2cc1C(=O)Nc1cccc(-c2nc3cc(C)ccc3o2)c1C	104	108
97	Cc1ccc(-c2nc(S(=O)(=O)c3ccc(C)cc3)c(N3CCCCC3)o2)cc1	105	110

Next part:
cpd	Structure	PV pol inh	PV pol inh intensity
106	CCc1ccc(-n2nc(CO)c(C(=O)NCc3ccccn3)n2)cc1	112	108
107	Cc1cc(C)cc(OCC(=O)N(Cc2ccc(Cl)cc2)CC2CCCO2)c1 (stereo unspecified)	104	108
108	Cc1c2cnn(CC(=O)NCCc3ccccc3)c(=O)c2c(C)n1Cc1ccccc1	103	106
109	COc1ccc(NC(=O)c2cc3c(-c4ccccc4F)nn(C)c3s2)c(OC)c1	107	111
